RN4220 kill: S. aureus RN4220 growth inhibition | AID 1259311 | inhibition, % (concentration not given with the values) | OD600, 16 h | 0.33% of 330,000 active;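 active means z-score of -3 or lower and OD600 up to 0.18 on both plates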;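 further: plate controls were untreated cells for no effect and reference antibiotic for full effect; stock transfer was 100 nL into about 80 µL; one replicate is shown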
PrP UTR inh: inhibition of PrP 5' UTR reporter expression; AID 488862; 0.35% of 340,000 active; inhibition, % (concentration not given with the values); cell-based PrP 5' UTR mRNA reporter, plate reader;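 active means every replicate at 50% or more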;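 further: 0 = median of the neutral control wells; tested in H4 reporter cells; numbers are from one replicate; inactives centre near -14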
Bead autofluor: flagged as autofluorescent in microsphere protease counterscreen; fluorescence intensity (no concentration beside the values); compound autofluorescence counterscreen, microsphere flow cytometry; stronger effect = higher value; 3.1% of 360,000 active;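 active means at least 3 SD above the mean of all compounds, about 16000 in these data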;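 further: 100 nL of 1 mM stock went into each well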
BJeLR lethal: kills HRASV12-expressing BJeLR cells | BJeLR (HRASV12) viability, CellTiter-Glo ATP luminescence, 48 h; reference of the scale not given here | inhibition, % (no concentration beside the values) | 0.17% of 300,000 active | AID 1554;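 active means replicate mean above 50%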;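 further: 50 nL library stock added to about 25 µL; numbers are from one replicate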
Sa ugtP lethal: kills S. aureus RN4220 lacking UgtP | S. aureus RN4220 ugtP deletion, OD600 growth, 16 h; some inactives read as strong as hits | 0.54% of 330,000 active | AID 1259309 | growth inhibition, % (concentration not given with the values);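 active means z-score under -3 and OD600 up to 0.15 on both plates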;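 further: plate controls were untreated wells for no effect and antibiotic for full effect; wells of about 80 µL received 100 nL stock; the first replicate is given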
Mtb hypoxia rep: reduces hypoxia-regulated biosensor signal in M. tuberculosis; 0.1% of 300,000 active; fluorescence inhibition, % (concentration not given with the values); M. tuberculosis hypoxia-regulated fluorescent reporter, fluorescence; AID 1159583;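 active means 35 to 45% if threefold the growth effect, above 45% if 1.5-fold the growth effect; inactive means the rest, general growth blockers included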;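 further: wells of about 50 µL received 100 nL stock; 0% = vehicle wells and 100% = reference inhibitor wells; whole bacteria with a GFP reporter of the hypoxia response; strong numbers were not always called active; many hits fall short of the cut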
Mtb hypoxia rep growth: further read-out of Mtb hypoxia rep, marked with its call; growth inhibition, %; measured here: M. tuberculosis growth (absorbance);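 0% = vehicle and 100% = reference antibiotic; read after six days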
Numbers without * were called inactive; . = no result given. Outcome played no part in choosing rows, and some 4.1% of all compounds hit somewhere here.

Order of results – RN4220 kill	PrP UTR inh	Bead autofluor	BJeLR lethal	Sa ugtP lethal	Mtb hypoxia rep	Mtb hypoxia rep growth
- COCCNC(=S)NC1CC2CCCC(C1)N2Cc1cccs1 (stereo unspecified)
 : 0.0	-6	9486	3	3	-2	-6
- Fc1ccc(-[n+]2nc(Nc3ccccc3)sc2-c2c3ccccc3cc3ccccc23)cc1
 : 36	-14	3757	33	13	.	.
- COC(=O)[C@@]12CCCN1[C@H](c1ccc(-c3ccc4c(c3)OCO4)c(OC)c1)[C@H]1C(=O)N(C)C(=O)[C@H]12
 : .	-32	4588	-6	.	.	.
- CC1(C)CC(=O)C(C=NCCN2CCN(C(=O)c3ccc(Br)cc3)CC2)=C(O)C1
 : 2.7	9	3974	-2	2	-3	-7
- CCn1ncc(Br)c1C(=O)Nc1ccc(F)cc1F
 : 3.8	6	7849	3	-1	19	7
- COc1ccccc1NC(=O)NCCN1CCN(C(=O)Nc2ccccc2OC)CC1
 : 3.2	-17	3156	-2	1	-5	8
- CCc1ccc2c(c1)C(=O)CCC2
 : 1.6	3	4071	.	2	2	1
- OC[C@@H]1[C@@H](c2ccc(Cl)cc2)C(c2cccc(Cl)c2)=NN1c1ccccc1
 : -4.5	-20	3555	.	-15	2	11
- CCN(CC)CCNC(=O)c1ccc(NC(=O)c2cccc(-n3cnnn3)c2)cc1
 : 1.5	-24	5017	-3	9	0	-4
- CC(C)[C@H](NC(=O)c1ccc(F)cc1)C(=O)NC1=NCCS1
 : 7.9	-30	3782	-6	4	-8	4
- COC(=O)C(C)(C)ONC(=O)Nc1ccc(Br)cc1
 : 4.2	-14	2892	4	2	20	6
- CC1CCCN(C/C=C/c2ccccc2[N+](=O)[O-])C1 (stereo unspecified)
 : 1.0	-41	20230*	5	5	6	8
- Cc1c(NC(=O)c2ccc(S(=O)(=O)N3CCOCC3)cc2)c(=O)n(-c2ccccc2)n1C
 : 5.4	8	3740	-2	6	15	7
- COc1cccc(CN2CC(C(=O)NC3CCC3)CCC2=O)c1 (stereo unspecified)
 : .	-12	5152	14	.	.	.
- O=[N+]([O-])c1c(Nc2ccccn2)cc(Cl)c2nonc12
 : 59	-17	4461	112*	71	16	8

Record cards (already shown):
COc1cccc(CN2CC(C(=O)NC3CCC3)CCC2=O)c1 (stereo unspecified) in the list: RN4220 kill = .; PrP UTR inh = -12; Bead autofluor = 5152; BJeLR lethal = 14; Sa ugtP lethal = .; Mtb hypoxia rep = .; Mtb hypoxia rep growth = .
CC(C)[C@H](NC(=O)c1ccc(F)cc1)C(=O)NC1=NCCS1 in the list: RN4220 kill = 7.9; PrP UTR inh = -30; Bead autofluor = 3782; BJeLR lethal = -6; Sa ugtP lethal = 4; Mtb hypoxia rep = -8; Mtb hypoxia rep growth = 4
CCc1ccc2c(c1)C(=O)CCC2 in the list: RN4220 kill = 1.6; PrP UTR inh = 3; Bead autofluor = 4071; BJeLR lethal = .; Sa ugtP lethal = 2; Mtb hypoxia rep = 2; Mtb hypoxia rep growth = 1

Returning to the listing, starting 5 compounds before the break.
Order of results – RN4220 kill	PrP UTR inh	Bead autofluor	BJeLR lethal	Sa ugtP lethal	Mtb hypoxia rep	Mtb hypoxia rep growth
- COC(=O)C(C)(C)ONC(=O)Nc1ccc(Br)cc1
 : 4.2	-14	2892	4	2	20	6
- CC1CCCN(C/C=C/c2ccccc2[N+](=O)[O-])C1 (stereo unspecified)
 : 1.0	-41	20230*	5	5	6	8
- Cc1c(NC(=O)c2ccc(S(=O)(=O)N3CCOCC3)cc2)c(=O)n(-c2ccccc2)n1C
 : 5.4	8	3740	-2	6	15	7
- COc1cccc(CN2CC(C(=O)NC3CCC3)CCC2=O)c1 (stereo unspecified)
 : .	-12	5152	14	.	.	.
- O=[N+]([O-])c1c(Nc2ccccn2)cc(Cl)c2nonc12
 : 59	-17	4461	112*	71	16	8
- COc1ccc(-n2nnnc2CNC(=O)C(=O)c2c[nH]c3ccccc23)cc1
 : 0.7	-5	6449	10	0	2	1
- O=C(CCCC(=O)OCC(Cl)=C(Cl)Cl)Nc1cccc(F)c1
 : 5.0	9	22287*	-1	-9	4	4
- COc1cc(C=NNC(=O)c2cn(-c3cccc(C)n3)cn2)ccc1O
 : -2.5	.	.	.	-14	-6	-11
- C/C(=N\NC(=O)c1cc(Br)ccc1O)c1cccc(NC(=O)c2ccccc2F)c1
 : .	-22	5461	-7	.	.	.
- CCOC(=O)C(NC(=O)C1C(C)N1S(=O)(=O)c1ccc(C)cc1)C(=O)OCC (stereo unspecified)
 : 4.1	-8	5788	-8	8	13	7
- C=C1CCN(C(C(=O)NCc2ccco2)C(C)C)S(=O)(=O)c2ccccc21 (stereo unspecified)
 : -1.2	.	.	.	-6	2	15
- CS(=O)(=O)N1CCN(C(=O)COc2ccccc2)CC1
 : 0.2	-14	3860	3	6	5	2
- COc1ccccc1NC(=O)Nc1ccc(NC(=O)c2ccccc2O)cc1
 : 2.3	-3	3744	-4	-4	8	-8
- CCCCn1nc(C(=O)Nc2nc3c(s2)CCCC3)c2ccccc2c1=O
 : 0.2	-10	2643	6	-25	-6	0
- O=[N+]([O-])c1ccccc1/C=N/N1CCN(c2ccc(Cl)cc2)CC1
 : .	-34	2699	6	.	.	.
- COCCNC(=O)c1ccc(CS(=O)(=O)c2ccccc2OC)o1
 : 2.0	-26	3591	0	11	11	12
- CCc1ccc2[nH]c(=O)c(C(c3nnnn3CC3CCCO3)N3CCCc4ccccc43)cc2c1 (stereo unspecified)
 : 6.0	-24	5509	-2	-12	1	7
- NC(=S)NNC(=O)c1cccc(Cl)c1
 : 9.4	-9	.	1	-5	-2	1
- Cc1cccc(NC(=O)c2sc(Cl)nc2C)c1C
 : 4.2	-11	8993	-8	11	4	3
- CCOC(=O)c1ccccc1N=N/C(C(C)=O)=C(/C)O
 : 1.7	-8	2419	-6	0	-8	17

The list goes on.
Order of results – RN4220 kill	PrP UTR inh	Bead autofluor	BJeLR lethal	Sa ugtP lethal	Mtb hypoxia rep	Mtb hypoxia rep growth
- COP(=O)(Cc1ccc(C#N)o1)OC
 : 5.6	-21	4065	-4	3	-12	-3
- COc1cc(CN2CC3CC(C2)c2cccc(=O)n2C3)cc(OC)c1OC (stereo unspecified)
 : 2.9	-12	11356	5	0	9	2
- Cc1ccc(NC(=O)c2ccccc2F)cc1S(=O)(=O)N1CCCCCC1
 : 11	-6	3616	.	7	-7	5
- Cc1ccc(C(=O)NCC(=O)OCC(=O)/C=C2\N(C)c3ccccc3C2(C)C)cc1C
 : 2.9	-8	2856	-4	6	9	19
- CCCC1=NCCn2cccc21
 : 1.3	-8	3630	12	-8	.	.
- COC(=O)c1ccc(NC(=S)N2CCN(Cc3ccc(Cl)cc3)CC2)cc1
 : 0.6	-8	6213	-5	-7	5	8
- OC(COc1ccccc1)CSc1ncn[nH]1 (stereo unspecified)
 : 2.3	-13	11308	-2	2	1	7
- COc1cccc(C(=O)Nc2nc3ccccc3s2)c1
 : -0.9	-48	4176	-5	-11	-5	4
- COc1ccc(N2CC(C(=O)Nc3ccc4c(c3)OCO4)CC2=O)cc1 (stereo unspecified)
 : -8.3	-12	4035	-4	-2	-7	2
- Cc1ccc(CN2CCSc3ccc(C(=O)NC4CCN(Cc5ccccc5)CC4)cc32)cc1
 : -5.9	-26	2064	11	-36	7	2
- CCCOP(=O)(OCCC)C1(Nc2ccc(C)cc2)CCCCC1
 : 2.2	-8	2498	1	-7	14	9
- CCCCCCCC1CC(CSC(=N)N)OC1=O (stereo unspecified)
 : -1.8	0	2077	6	41	.	.
- COC(=O)c1c(NC(=O)C2C3CCC(C3)C2C(=O)O)sc2c1CCCCC2 (stereo unspecified)
 : 0.5	-9	4503	-2	27	4	7
- CCCCNC(=O)C(=O)c1ccccc1NC(C)=O
 : 3.4	-10	2564	-15	2	17	5
- COc1cc(C2C(C(=O)c3ccc(C)o3)=C(O)C(=O)N2CCN2CCOCC2)ccc1OCCC(C)C (stereo unspecified)
 : 3.5	-7	5732	7	2	0	14

The listing continues.
Order of results – RN4220 kill	PrP UTR inh	Bead autofluor	BJeLR lethal	Sa ugtP lethal	Mtb hypoxia rep	Mtb hypoxia rep growth
- O=S(=O)(NCCc1ccccc1)c1cccs1
 : 0.7	-7	5538	1	7	3	-4
- COc1cccc(Nc2nn3c(=O)c4ccccc4nc3s2)c1
 : 1.5	-26	4033	.	-36	3	8
- CCCCN(Cc1nc2ccccc2c(=O)[nH]1)C(=O)COc1ccc(F)cc1Cl
 : 1.6	-19	7419	.	3	4	16
- O=C(NCC1CCCCC1)c1ccc(Br)o1
 : 15	-13	5420	12	3	.	.
- COc1ccc(-c2cc(C(F)(F)F)nc(SCC(=O)NCc3cnn(C)c3C)n2)cc1OC
 : 9.8	-12	2517	2	2	1	4
- COc1cccc(N2CCN(CC(=O)c3c(C)[nH]c4ccccc34)CC2)c1
 : 14	-12	11483	12	-21	13	4
- CCOc1ccccc1C(C(=O)NC1CCCCC1)N(C(=O)c1csnn1)C1CC1 (stereo unspecified)
 : 0.8	-20	5460	1	11	3	7
- COc1cc(-c2cc(-c3ccccc3)nc(SCC(=O)Nc3nccs3)c2C#N)cc(OC)c1OC
 : 1.2	-10	2343	1	7	-7	-21
- O=[N+]([O-])c1cc(S(=O)(=O)N2CCCC2)ccc1NN=C1CCCCC1
 : 1.7	-9	2483	2	0	5	7
- COC(=O)c1ccccc1OCCCCN1CC(C)OC(C)C1 (stereo unspecified)
 : 2.0	-16	2289	-6	2	-15	9
- NC(=S)n1[nH]c(-c2ccc([N+](=O)[O-])cc2)c(N=Nc2cccc([N+](=O)[O-])c2)c1=O
 : 5.6	-24	4393	15	-8	10	6
- COCCn1nnnc1C(c1cccs1)N1CCN(c2cccc(C(F)(F)F)c2)CC1 (stereo unspecified)
 : 7.9	-117	4883	1	13	.	.
- COc1ccccc1CNC(=O)CC1C(=O)NCCN1C1Cc2ccccc2C1 (stereo unspecified)
 : 5.3	-1	5577	-4	3	0	6
- CC1CCN(S(=O)(=O)c2ccc(NC(=O)C3CC(=O)N(c4ccccc4)C3)cc2)CC1 (stereo unspecified)
 : -0.4	-5	3730	1	2	5	6
- CN1/C(=C/c2cccc[n+]2C)Sc2ccccc21
 : 3.8	-26	3651	28	8	-7	2

2 records picked at random from the list so far, as already listed:
Order of results – RN4220 kill	PrP UTR inh	Bead autofluor	BJeLR lethal	Sa ugtP lethal	Mtb hypoxia rep	Mtb hypoxia rep growth
- CCOc1ccccc1C(C(=O)NC1CCCCC1)N(C(=O)c1csnn1)C1CC1 (stereo unspecified)
 : 0.8	-20	5460	1	11	3	7
- O=S(=O)(NCCc1ccccc1)c1cccs1
 : 0.7	-7	5538	1	7	3	-4

Next section
Order of results – RN4220 kill	PrP UTR inh	Bead autofluor	BJeLR lethal	Sa ugtP lethal	Mtb hypoxia rep	Mtb hypoxia rep growth
- C=C(C)Cn1c(N2CCC(Cc3ccccc3)CC2)nc2c1c(=O)[nH]c(=O)n2C
 : -0.3	2	3591	-3	11	-6	-2
- CCOc1ccc(-n2c(-c3ccc(Cl)cc3)c[n+]3c2SCC3)cc1
 : 16	-47	4003	21	9	8	11
- Cc1nc2ccccc2nc1OCC(=O)Nc1ccc2ccccc2c1
 : -1.2	-11	2468	1	-11	-12	-9
- O=C(COC(=O)c1ccccc1NC(=O)c1ccco1)Nc1ccc2c(c1)OC(F)(F)O2
 : 1.5	-6	21783*	-3	-38	1	6
- Cc1cc(C)nc(Sc2c(F)c(F)c(C(F)(F)F)c(F)c2F)n1
 : 2.0	-31	5227	0	-5	.	.
- CC1CCCCC12NC(=O)N(CC(=O)NCCc1ccccc1)C2=O (stereo unspecified)
 : 6.4	-26	4013	.	8	20	12
- COc1ccc(Cl)cc1C(=O)NNC(=O)CCNS(=O)(=O)c1ccccc1
 : 4.9	-38	4473	.	11	14	4
- COc1ccc(C(=O)NNC(=O)Cc2nc3nc(C)cc(C)n3n2)cc1
 : 5.9	-30	4277	0	12	-2	2
- COc1ccc(NC(=O)CSc2ccccn2)cc1OC
 : 7.1	-10	2510	10	5	-2	0
- C/C(=C\C(=O)C(F)(F)F)Nc1cc(C)cc(C)c1
 : -9.8	-22	3176	0	1	-5	9
- O=C(O)CCn1c2c(c3ccccc31)CCCC2
 : 3.5	-15	8917	-4	-1	15	8
- O=C(NCC1CCCO1)c1ccc(CNS(=O)(=O)c2ccc(F)c(Cl)c2)cc1 (stereo unspecified)
 : 0.1	-25	4266	-3	2	6	-1
- COc1ccccc1CN1C(=O)CCC1(C)C(=O)NC1CCCCCC1 (stereo unspecified)
 : 0.4	-22	9470	7	-1	6	8
- CCOP(=O)(OCC)C(NC(=O)c1cccc(C)c1)C(Cl)(Cl)Cl (stereo unspecified)
 : 3.0	-10	6305	1	4	13	6

Source: PubChem
